MT1-MMP reporter: inhibitors of MT1-MMP promoter transcription, cell-based, luciferase reporter, luminescence (AID 618) | MT1-MMP promoter luciferase reporter cells, luminescence | calls from a first round at 10 µM; hits with a dose series show EC50 in µM | 87,000 compounds, 0.62% hits;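 active = over half of the reporter light lost at 10 µM or EC50 under 50 µM; inactive = the rest and hits that failed the dose series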;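 also: actives suppress MT1-MMP promoter-driven transcription so potencies describe inhibitors; HT1080 fibrosarcoma cells; overnight exposure; toxic or luciferase-blocking compounds were not removed from the actives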
WNV protease inh: WNV NS2B-NS3 proteinase inhibition; P06935; z-score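 (tested at a level between 10 and 100 µM)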; WNV NS2B-NS3 protease, fluorogenic substrate Ex360/Em465; active compounds read low; 65,000 compounds, 0.18% hits;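 active = z-score at -3 or under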;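 also: score is relative to mean and spread of the compound wells of a plate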
Target sequence (P06935 1371-1501 limits assumed): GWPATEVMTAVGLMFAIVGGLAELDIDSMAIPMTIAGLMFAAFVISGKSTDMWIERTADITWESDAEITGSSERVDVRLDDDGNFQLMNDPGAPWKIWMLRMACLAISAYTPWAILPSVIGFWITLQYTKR
Target sequence (P06935 1502-1679 limits assumed): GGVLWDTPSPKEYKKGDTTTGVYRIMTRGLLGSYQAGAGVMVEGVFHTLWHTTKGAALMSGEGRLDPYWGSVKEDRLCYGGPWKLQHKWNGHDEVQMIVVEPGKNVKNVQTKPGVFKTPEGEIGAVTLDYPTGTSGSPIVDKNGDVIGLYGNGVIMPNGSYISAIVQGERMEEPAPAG
Hsc70 ATP site: small molecules displacing fluorescent ligand from Hsc70 – biochemical, fluorescence polarization, primary screen (AID 568); displacement, % at 20 µM; hits with a dose series show IC50 in µM; 83,000 tested, under 10 active; Hsc70 fluorescence polarization, probe displacement; higher % means a stronger effect; strong numbers were not always called active;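 active = displacement above 50% without optical interference and an IC50 on retest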;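 also: ATPase domain with a fluorescein-tagged ATP probe; 0% = vehicle and 100% = excess ADP; read after one hour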
* marks the source's active call; other numbers are inactive results; i = inactive; nt = no result given.

No.	Molecule	MT1-MMP reporter	WNV protease inh	Hsc70 ATP site
1	Cc1[nH]c2ccccc2c1/C=N/n1cnnc1	i	-0.56	0.0%
2	Cc1ccc(C(=O)Nc2cccc(Oc3ccccc3)c2)o1	i	nt	-0.3%
3	O=C(COc1ccc2ccccc2c1)Nc1ccc(S(=O)(=O)N2CCCCCC2)cc1	i	nt	-0.7%
4	Cc1cccc(NC(=O)CS(=O)(=O)c2cn(C)c3ccccc23)c1C	i	-1.04	1.2%
5	O=C1c2ccccc2OCOc2ccccc21	i	0.04	-1.3%
6	COC(=O)Nc1ccc(S(=O)(=O)N2CCN(C)CC2)cc1	i	-0.28	1.6%
7	CCCSc1nc(N)c2c3c(sc2n1)CN(C)CC3	i	0.27	-3.3%
8	COc1ccc(OC)c(NC(=O)c2cnc3ccccn3c2=O)c1	i	-0.5	5.7%
9	Cc1cccc2c(=O)c(C(=O)N3CCCCCC3)c[nH]c12	i	1.06	-9.4%
10	COc1ccccc1N1CCN(C(=O)CSc2nnc(-c3ccoc3C)o2)CC1	i	0.15	-0.1%
11	O=C(c1cnn(-c2nc3ccccc3s2)c1)c1ccccc1O	i	-0.31	-3.1%
12	O=C(COC(=O)C1CCN(S(=O)(=O)c2cccs2)CC1)c1ccc2c(c1)OCCO2	i	-0.37	-3.1%
13	Clc1cccc(Cl)c1Cn1cc(Br)cn1	i	nt	-3.2%
14	O=C(NCCN1CCCCCC1)C1CCC(CNS(=O)(=O)c2cccc3cccnc23)CC1 (stereo not given)	i	1.54	4.4%
15	CC(C)NC(=O)COc1ccc(Cl)cc1Cl	i	nt	-6.1%
16	O=C(NCc1ccccc1)C(c1ccc(F)cc1)N(Cc1ccco1)C(=O)c1ccccn1 (stereo not given)	i	nt	3.2%
17	Cc1ccc(OCCSc2cc(C)nc(N)n2)cc1	i	-0.4	3.5%
18	CC(Sc1nncn1C)C(=O)Nc1ccccc1-c1ccccc1 (stereo not given)	i	0.11	-0.3%
19	C=C1CC(C)OC(c2ccccc2OCC(O)CN2CCCCC2)C1 (stereo not given)	i	-0.62	-3.8%
20	C=CCn1c(C)cc(C(=O)CSc2nc3ccccc3c(=O)[nH]2)c1C	i	0.83	1.2%
21	OCCN(CCO)c1ncnc2c1oc1ccc(Br)cc12	i	nt	2.5%
22	COc1ccc(-n2c(SCC(=O)Nc3ccccc3)nnc2-c2ccoc2C)cc1	i	nt	-1.5%
23	COc1ccc(-n2ncc3c(N4CCC(C)CC4)ncnc32)cc1	nt	-0.47	3.2%
24	Cc1c(NC(=O)c2ccc3c(c2)OCO3)cccc1-c1nc2ncccc2o1	i	0.91	-1.6%
25	CCOC(=O)c1ccc(NC(=O)c2cc(S(=O)(=O)N3CCOCC3)ccc2O)cc1	i	-0.48	1.6%
26	CCCS(=O)(=O)N1CCCC(C(=O)NCCCN2CCN(c3ccccc3F)CC2)C1 (stereo not given)	i	0.72	-3.4%
27	COC(=O)C1CCN(C(c2cc(OC)c(OC)c(OC)c2)c2sc3nc(C)nn3c2O)CC1 (stereo not given)	i	-0.71	3.4%
28	COc1ccc(CNC(=O)c2cc3c(=O)n4ccccc4nc3n(CC3CCCO3)c2=N)cc1 (stereo not given)	i	-1.43	-0.4%
29	Cc1nn(-c2ccc(F)cc2)c2sc(C(=O)OC3CCOC3=O)cc12 (stereo not given)	i	-1.09	-0.7%
30	CCn1c(SCC(=O)Nc2nc3ccccc3s2)nc2c(c1=O)SC(C)C2 (stereo not given)	i	-1.08	-8.4%
31	Cc1ccc2cc(CN(CC3CCCO3)C(=O)c3ccco3)c(=O)[nH]c2c1C (stereo not given)	i	-0.98	-4.7%
32	COC(=O)c1cc(C(=O)OC)cc(N2C(=O)CC(N3CCN(c4ccccc4)CC3)C2=O)c1 (stereo not given)	i	1.85	6.6%
33	O=C(NCc1ccco1)C(c1ccccc1F)N(CC1CCCO1)C(=O)Cn1nnc2ccccc21 (stereo not given)	i	0.55	1.0%
34	Cc1c2c(n3c(nc4ccccc43)c1C#N)N(Cc1cccnc1)CC2	i	0.97	1.8%
35	O=C(C1CC(c2cccc(Br)c2)=NO1)N1CCc2ccccc2C1 (stereo not given)	i	nt	1.3%
36	CCOc1ccc(OCCCCN(C)C)cc1	i	-0.74	2.7%
37	O=C(CN(Cc1ccco1)C(=O)c1cc(=O)[nH]c2ccccc12)Nc1ccccc1C(F)(F)F	i	1.91	8.7%
38	CC1Cc2ccccc2N1CC(=O)NC(=O)NCc1ccco1 (stereo not given)	i	1.14	2.1%
39	COCCN1C(=O)C(O)=C(C(C)=O)C1c1ccc(OC)c(OC)c1 (stereo not given)	i	-0.64	2.4%
40	CON(c1nc(N(C)C)nc(N(C)C)n1)S(=O)(=O)c1ccccc1Cl	i	nt	-1.1%
41	Cc1cc(C)cc(OCC(=O)Nc2ccc(N3CCCC3)cc2)c1	i	-1.05	-5.9%
42	Cc1ccc(S(=O)(=O)N(CCO)c2cc3c(s2)CCCC3)cc1	i	0.39	4.1%
43	O=C(NC1=NCCS1)c1cccs1	i	-0.27	-8.9%
44	CC(=O)C1=C(O)CCC1=N	i	-1.68	5.7%
45	O=C(CN1CCC(NC(=O)c2ccccc2)CC1)NCc1ccccc1F	i	-0.89	-15.0%
46	COC(=O)Cn1c2ccc(F)cc2c2nc(C)sc21	i	0.64	-2.1%
47	CCOc1cccc(-c2nn3c(-c4cc(C)[nH]n4)nnc3s2)c1	i	1.56	2.1%
48	COc1ccccc1NC(=O)Cn1nnc(-c2ccccc2NC(=O)c2ccco2)n1	i	-0.69	-9.7%

4 entries from above, set out differently:
#36 CCOc1ccc(OCCCCN(C)C)cc1
  MT1-MMP reporter: i
  WNV protease inh: -0.74
  Hsc70 ATP site: 2.7%

#10 COc1ccccc1N1CCN(C(=O)CSc2nnc(-c3ccoc3C)o2)CC1
  MT1-MMP reporter: i
  WNV protease inh: 0.15
  Hsc70 ATP site: -0.1%

#38 CC1Cc2ccccc2N1CC(=O)NC(=O)NCc1ccco1 (stereo not given)
  MT1-MMP reporter: i
  WNV protease inh: 1.14
  Hsc70 ATP site: 2.1%

#22 COc1ccc(-n2c(SCC(=O)Nc3ccccc3)nnc2-c2ccoc2C)cc1
  MT1-MMP reporter: i
  WNV protease inh: nt
  Hsc70 ATP site: -1.5%

Returning to the listing, repeating the two entries before the break.
No.	Molecule	MT1-MMP reporter	WNV protease inh	Hsc70 ATP site
47	CCOc1cccc(-c2nn3c(-c4cc(C)[nH]n4)nnc3s2)c1	i	1.56	2.1%
48	COc1ccccc1NC(=O)Cn1nnc(-c2ccccc2NC(=O)c2ccco2)n1	i	-0.69	-9.7%
49	Cc1c(NC(=O)c2ccc(COc3ccc4ccccc4c3)o2)c(=O)n(-c2ccccc2)n1C	i	-1.02	5.3%
50	Cc1[nH]nc2c1C1(CCOC1C)C(C#N)=C(N)O2 (stereo not given)	i	0.58	1.9%
51	Cc1cc(C)cc(NC(=O)CN2CCc3ccccc3C2)c1	i	nt	-2.1%
52	O=C(O)CCC(=O)N1CCN(c2ccccn2)CC1	i	-0.84	0.7%
53	CC(C)c1nnc(NC(=O)CCC(=O)NCc2ccc3c(c2)OCO3)s1	i	-0.92	1.1%
54	CCOc1ccc(NC2c3ccccc3C(=O)N2c2ccc(Cl)cn2)cc1 (stereo not given)	i	-0.92	7.7%
55	O=C(NC1(C(F)(F)F)N=C2SCCN2C1=O)C1CCCCC1 (stereo not given)	i	0.18	0.4%
56	CCC(=O)Nc1cnc(NC(=O)c2cccc(F)c2)cc1C	i	-0.06	-4.7%
57	COc1ccc(C(=O)COC(=O)c2ccco2)cc1	i	0.46	1.9%
58	O=C(O)C1CCCN(S(=O)(=O)c2cccs2)C1 (stereo not given)	i	nt	-3.5%
59	CCOC(=O)C1CCCN(CC(O)COc2ccc(OC)cc2C(C)(C)C)C1 (stereo not given)	i	0.88	-5.8%
60	O=C1c2ccccc2C(=O)N1CCC(c1ccccc1)c1ccco1 (stereo not given)	i	nt	2.6%
61	CC(C)n1c2ccccc2c2nnc(SCC(=O)OCN3C(=O)c4ccccc4C3=O)nc21	i	-0.64	6.2%
62	NC(=O)C1CCN(C(=O)c2ccc(CS(=O)(=O)c3c(Cl)cccc3Cl)o2)CC1	i	0.1	-2.2%
63	COC(=O)C1(C(F)(F)F)N=C(N(C)C)OC(N(C)C)=N1	i	-0.42	2.6%
64	CC1CCCC(C)N1C(=O)CSc1nc(N)c(-c2ccccc2)c(=O)[nH]1 (stereo not given)	i	nt	1.8%
65	Cc1ccc(O)c(N=CC2=C(O)c3ccccc3C2=O)c1	i	-1.03	6.0%
66	CCn1c(=O)cc(OCC(=O)NCCCN2CCN(c3cccc(Cl)c3)CC2)c2ccccc21	i	-0.02	-3.0%
67	C=CCn1c(SCc2cc(C(=O)OC)c(C)o2)nnc1-c1ccncc1	i	1.27	1.9%
68	CCCNC(=O)Cc1ccsc1	i	1.63	-2.7%
69	COCCNC(=O)CSc1ccc(C)cc1	i	-1.52	5.5%
70	CCOc1cc(C(=O)Nc2ccc(S(=O)(=O)Nc3cc(C)on3)cc2)cc(OCC)c1OCC	i	-0.61	0.3%
71	Cn1c(=O)c2c(nc(CN3CCN(c4ccccc4)CC3)n2CCCc2ccccc2)n(C)c1=O	i	1.08	6.6%
72	CCn1c(SCc2nc3cc(OC)c(OC)cc3c(=O)[nH]2)nnc1-c1ccncc1	i	-0.08	-6.3%
73	COc1ccc(-n2c(COc3ccc(Cl)cc3)nnc2SCc2ccc(C#N)cc2)cc1	i	nt	6.3%
74	Cc1c(N2C(=O)SC(CC(=O)O)C2=O)c(=O)n(-c2ccccc2)n1C (stereo not given)	i	-0.45	-4.6%
75	CC(=O)NC1=NN(C(C)=O)C(c2sccc2C)S1 (stereo not given)	i	nt	6.4%
76	O=C(CN1CCN(S(=O)(=O)c2ccccc2)CC1)Nc1ccc2c(c1)OCO2	i	-0.1	-3.9%
77	N=C1N(/N=C/c2ccccc2)C(=Nc2ccccc2)C(=S)N1c1ccccc1	i	nt	-1.6%
78	O=C(CSc1ccc2nnc(-c3ccccn3)n2n1)N1CCOCC1	i	0.48	2.3%
79	O=C(Cn1c(-c2cscn2)nc2ccccc21)Nc1ccccc1F	i	nt	-5.1%
80	CN(CC(=O)N1CCCCC1)S(=O)(=O)c1cccc2cccnc12	i	-0.49	-3.7%
81	O=C1OCCC1Sc1ncnc2sccc12 (stereo not given)	i	0.02	2.4%
82	CC1=C(C(=O)Nc2ccccc2)C(c2ccc(N(C)C)cc2)NC(=O)N1 (stereo not given)	i	-0.09	-0.7%
83	CCOC(=O)C(C)(C)C(=O)C(C)(C)C(O)c1ccccn1 (stereo not given)	i	-0.83	2.8%
84	Clc1ccc(-n2ncc3c(NCc4ccccn4)ncnc32)cc1	i	0.28	-0.7%
85	CCN(CC)S(=O)(=O)c1ccc2oc(SCC3CN=C(c4ccc(OC)cc4)S3)nc2c1 (stereo not given)	i	0.99	-5.6%
86	CCCCOc1ccc(C(CC(=O)NC)C(=O)O)cc1 (stereo not given)	i	nt	-0.4%
87	CN(C)c1ccc(/C=[N+](\[O-])C2SC(=S)N(C)C2(C)C)cc1 (stereo not given)	i	-1.17	-0.2%
88	Cc1ccc(-c2cc(C(=O)NCc3ccccn3)no2)cc1	i	-0.02	-0.7%
89	CC(=O)NC(Cc1ccccc1)C(=O)N1CCN(C(=O)c2ccco2)CC1 (stereo not given)	i	-0.65	2.2%
90	Cc1ccc(C(=O)N2CCc3ccccc32)cc1	i	nt	2.0%
91	CC(C)N(C(=O)CSc1nc2ccccc2n1Cc1ccccc1F)C(C)C	i	nt	4.6%
92	COc1cccc(N2CCN(CC(=O)C34CC5CC(CC(C5)C3)C4)CC2)c1	i	nt	0.7%
93	COc1ccc(/C=C2\CCc3ccccc3C2=O)cc1Cn1nc(C)c(Br)c1C	i	nt	2.6%
94	COc1ccc(C2=NN(CN3C(=O)C(=O)c4ccccc43)C(c3ccc(Br)cc3)C2)cc1 (stereo not given)	i	nt	5.7%
95	COc1ccc(Cc2noc(COc3ccc(Cl)cc3)n2)cc1	i	nt	-9.8%
96	COc1ccccc1S(=O)(=O)Cc1ccc(C(=O)NC2CCCCC2)o1	i	-0.2	-2.0%
97	Cc1cc2ccccc2c(=O)n1CC(=O)NCc1ccco1	i	nt	7.8%
98	CCCCOc1ccccc1Cn1c(=O)oc2ccc(C)cc21	i	-0.28	-10.1%
99	CCOC(=O)N1CCC(NC(=O)c2cc(-c3ccc(F)cc3)[nH]c2C)CC1	i	1.24	-2.8%
100	Cc1ccc2c(c1)N(CCC(=O)NCc1ccccn1)C(=O)CO2	i	-0.53	-2.6%
101	N#Cc1c2c(c(NCCCN3CCOCC3)n3c1nc1ccccc13)CCC2	i	-0.41	-1.0%
102	CC(=O)Nc1nc2c(ncn2COCCOC(C)=O)c(=O)[nH]1	i	1.14	7.7%
103	CC1(C)CC(=O)C=C(NCc2ccco2)C1	i	-1.52	-0.7%
104	Cc1ccc(C(C)NC(=O)c2ccco2)cc1C (stereo not given)	i	0.85	0.3%
105	COc1ccc(OCC(=O)OC2CCN(C)CC2)cc1	i	nt	3.7%
106	CC1COC(c2cccn2Cc2ccccc2Cl)=N1 (stereo not given)	i	1.9	0.5%
107	COCCCn1c(C2CCCCC2)nc2oc3cc(OC)ccc3c(=O)c2c1=O	i	0.98	-4.7%

Screens deposited in PubChem by several laboratories.

No enrichment for hits; about 0.8% have a hit in one of these screens.
